# PMP22 txn prim: modulates PMP22 transcription in S16 Schwann cells | S16 Pmp22-F2sN Schwann cells (luciferase reporters placed in the Pmp22 gene), FLuc/NLuc coincidence luminescence, 24 h | Potency, µM (series often up to 57.5 µM), inactives show at the top dose activity change, negative = inhibition, actives largely listed as inhibitors | 43,000 compounds, 2% hits; active = clear falling dose curves in both reporters; inconclusive = both reporters move, but less clearly or upward; inactive = either reporter flat; the % is the NLuc reporter signal; note: % is set by controls: 0 for no effect and ±100 for the full control effect; some results filed as inactive show a strong effect at the top dose
#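 qHTS, 1536-well. Cells seeded, compounds added by pin tool, 24 h 37C. Nano-Glo reagent 1 (lysis/FLuc), 10 min RT, read; Stop&Glo, 10 min RT, read NLuc.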
# HTT promoter inh: inhibits huntingtin promoter activity | HEK293 HTT promoter firefly luciferase reporter (activity 0% = vehicle and -100% = no light), 24 h | Potency, µM (top dose mostly 57.5 µM), for the others: at the top dose activity change, negative = inhibition, hits mostly inhibitors | 48,000 compounds, 0.93% hits; active = well fitted inhibition curve with a large enough effect; inconclusive = small, poorly fitted or top-dose-only effect; inactive = no such curve, though single readings can be large or run the other way; note: nearly all actives have a fitted effect of over 50% in size
#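 HEK293 Fluc reporter, 2,500 cells/well, 24 h pre-culture; cpds up to 57.5 uM final, 24 h 37 degrees C; Dual-Glo, 10 min RT; normalized vehicle = 0%, zero RLU = -100%.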
# * marks the source's active call; other numbers are inactive results; ? = inconclusive; . = no result given. Potency is the fitted concentration of half-maximal effect.
# Value order – HTT promoter inh | PMP22 txn prim
> Cc1ccc(-n2c(=O)c3c(cnn3C)n(CC(=O)Nc3cc(C)ccc3C)c2=O)cc1
    -2.6% | 9.5%
> CC(=O)c1ccc(NC(=O)CN(C)S(=O)(=O)c2cccc3nsnc23)cc1
    -6.0% | 1.7%
> CCc1cc2c(cc3c(=O)n(CC(=O)NCCc4ccc(OC)c(OC)c4)ncn32)s1
    -9.6% | 3.0%
> Cc1cccc(Nc2nc(Nc3cccc(C)c3)nc(N3CCOCC3)n2)c1
    ? | ?
> COc1cc(OC)cc(C(=O)Nc2cc3c(cc2N2CCCC2)n(C)c(=O)c(=O)n3C)c1
    -5.6% | -0.4%
> O=C(O)C(=O)Nc1cccc(C2=NN=N[N]2)c1
    -1.2% | .
> Cc1ccc(-c2noc(CNC(=O)c3ccc(Br)o3)n2)cc1
    -9.9% | -5.6%
> Cc1cc(C)cc(C(=O)N(Cc2nc(-c3ccc(Cl)cc3)no2)C(C)C)c1
    -13.9% | -21.0%
> COc1ccc(C)cc1NS(=O)(=O)c1c(C(=O)N2CCCCCC2)c(C)n(C)c1C
    -1.7% | 1.7%
> COc1ccccc1CN1CCC(CNC(=O)c2cnn(-c3cccc(Cl)c3)c2C2CCN(C(=O)OC(C)(C)C)CC2)CC1
    -6.3% | ?
> CC(NC(=O)Nc1cc(Cl)ccc1Cl)c1c(-n2cccc2)sc2c1CCCC2 (stereo not given)
    ? | 5.1%
> O=C(NCC(c1cccnc1)N1CCc2ccccc2C1)C(=O)Nc1ccc(Cl)cc1 (stereo not given)
    ? | ?
> CCCC(=O)c1cc2c(cc1NC(=O)c1ccccc1F)OCCO2
    -13.1% | -1.1%
> CC(C)N(C)C1CCN(S(=O)(=O)c2ccc3[nH]c(=O)ccc3c2)CC1
    -7.0% | 4.8%
> O=C(Cn1ccn(-c2ccc(F)c(F)c2)c(=O)c1=O)c1ccc(F)cc1
    -24.4% | -9.2%
> CCc1ccc(-n2nc(C)c3c(C)cc(=O)n(CC(=O)Nc4cc(Cl)ccc4OC)c32)cc1
    -18.0% | -80.4%
> COCCn1c(C)cc(O)c(C(c2ccccc2)N2CCC(C)CC2)c1=O (stereo not given)
    -12.4% | -2.3%
> Cc1ccc(CNC(=O)CN2C(=O)CC(c3ccc(C)c(C)c3)=Nc3ccccc32)cc1
    8.6% | -64.3%
> CCOC(=O)c1ccc(NC(=O)c2ccc(CN3C(=O)CCn4nc(C)cc43)cc2)cc1
    -14.0% | 8.1%
> COc1ccc(S(=O)(=O)NCC(c2ccco2)N2CCOCC2)cc1OC (stereo not given)
    2.0% | -3.1%

# More records follow.
# Value order – HTT promoter inh | PMP22 txn prim
> COc1ccc(Nc2nc3cc(Cl)c(Cl)cc3n3cnnc23)cc1Cl
    -1.3% | -6.5%
> Cc1ccc(S(=O)(=O)N(CCc2ccccc2)CC(=O)Nc2cc(C)ccc2C)cc1
    -38.7% | -22.3%
> Cc1cccc(-n2ccnc2SCC(=O)Nc2nc3ccccc3s2)c1
    -5.1% | -47.9%
> CCOc1ccccc1NS(=O)(=O)c1ccc(N2CCCCS2(=O)=O)cc1
    -19.6% | -1.8%
> CCc1ccccc1NC(=O)c1ncoc1-c1ccco1
    -24.0% | -13.6%
> Cc1ccccc1Nc1c(-c2ccc(Cl)cc2)nc2c(C)cccn12
    -3.1% | ?
> CSc1ccc(CCNC(=O)C2CCCN(S(=O)(=O)N(C)c3ccc(F)cc3)C2)cc1 (stereo not given)
    ? | ?
> CCc1ccc(C(=O)c2cn(CC(=O)Nc3ccc(OC)c(Cl)c3)c3nc(C)ccc3c2=O)cc1
    3.1% | ?
> Cc1ccccc1OCC(=O)N(Cc1ccc(N(C)C)cc1)CC1CCCO1 (stereo not given)
    -25.5% | -48.9%
> CC(=O)c1ccc(NC(=O)c2c3c(nc4ccccc24)C(=O)N(C2CCCCC2)C3)cc1
    -21.9% | ?
> CC(=O)N(c1onc(C)c1C)S(=O)(=O)c1ccc(N)cc1
    2.4% | .
> Cc1cccc(OCc2nc(C#N)c(NCc3ccccc3Cl)o2)c1
    7.9% | ?
> CNc1oc(-c2ccc(COc3ccc(C)cc3)o2)nc1C#N
    -22.4% | -50.3%
> CC(C)CCn1c(=O)c2cccnc2n(CC(=O)Nc2ccccc2)c1=O
    -18.2% | 13.0%
> COc1ccc(Nc2c(-c3ccccn3)nc3ccc(Cl)cn23)cc1
    -6.9% | -32.9%
> Cc1cccc(NC(=O)CSC2=Nc3ccccc3C3=NC(CCC(=O)NCc4ccco4)C(=O)N23)c1 (stereo not given)
    -6.2% | -47.5%
> COCCCNC(=O)CCCCn1c(=O)c2ccccc2n(CC(=O)Nc2ccc(C)cc2C)c1=O
    -10.7% | -5.9%
> COc1cc(C(=O)N2CCNC(=O)C2CC(=O)Nc2ccc(C)c(C)c2)cc(OC)c1OC (stereo not given)
    -5.3% | -12.2%
> Cc1cc2c(cc1S(=O)(=O)N(CCN(C)C)Cc1ccco1)OCC(=O)N2
    7.4% | -14.4%
> CCc1ccc(NC(=O)c2cc(CN3CCOCC3)on2)cc1
    28.6% | -2.7%

# Entries of single compounds, quoted from the list.
# Entry for CCc1ccccc1NC(=O)c1ncoc1-c1ccco1 → HTT promoter inh: -24.0%; PMP22 txn prim: -13.6%
# Entry for CCOc1ccccc1NS(=O)(=O)c1ccc(N2CCCCS2(=O)=O)cc1 → HTT promoter inh: -19.6%; PMP22 txn prim: -1.8%
# Entry for CC(C)CCn1c(=O)c2cccnc2n(CC(=O)Nc2ccccc2)c1=O → HTT promoter inh: -18.2%; PMP22 txn prim: 13.0%

# (continued)
# Value order – HTT promoter inh | PMP22 txn prim
> Cc1cc2c(cc1S(=O)(=O)CCC(=O)N1CCN(c3ccccc3)CC1)OCC(=O)N2
    -19.1% | 2.6%
> CCc1ccc(S(=O)(=O)c2cn(C)c3cc(F)c(F)cc3c2=O)cc1
    -25.5% | ?
> Cc1ccc(CSCCNC(=O)CN(c2cccc(C)c2C)S(=O)(=O)c2ccccc2)cc1
    ? | ?
> CCc1ccc(NC(=O)CSc2cn(CC(=O)N3CCCC3)c3ccccc23)cc1
    ? | -26.3%
> Cc1ccc(C)c(NC(=O)C2CCCN(S(=O)(=O)c3c(C)noc3/C=C/N(C)C)C2)c1 (stereo not given)
    -14.1% | ?
> CCCOc1ccc(C(=O)N(Cc2ccc(N(C)C)cc2)CC2CCCO2)cc1 (stereo not given)
    -19.6% | ?
> Cc1ccc(-n2nc3c(N4CCCC(C(=O)NCc5ccc(Cl)cc5)C4)nnc(C)c3c2C)cc1 (stereo not given)
    -1.5% | 6.2%
> CCOc1ccccc1NC(=O)Cn1c(=O)n(-c2ccc(C)cc2)c(=O)c2c1cnn2C
    -8.1% | -37.1%
> Cc1noc(-c2ccccc2OCC(=O)Nc2ccccc2[N+](=O)[O-])n1
    -5.0% | -94.1%
> COc1ccccc1N1CCN(C(=O)Cn2ncc3c([nH]c4ccccc43)c2=O)CC1
    -0.6% | -8.1%
> COc1ccc(NC(=O)CSc2nc3ccncc3[nH]2)c(OC)c1
    ? | -32.0%
> CCOC(=O)N1CCC(NC(=O)c2cnn(-c3ccc(F)cc3F)c2C2CCN(C(=O)OC(C)(C)C)CC2)CC1
    -4.2% | 5.2%
> N#C/C(=C/c1cn(Cc2ccccc2Cl)c2ccccc12)C(=O)Nc1cccc(Cl)c1
    ? | -25.9%
> COc1ccc(NC(=O)C2=C(C)Nc3ncnn3C2c2ccc[nH]2)cc1 (stereo not given)
    -16.2% | -10.5%
> CC(C)(C)c1ccc(C(=O)N2CC(=O)Nc3ccc(F)cc3C2c2ccc(F)cc2)cc1 (stereo not given)
    ? | ?
> O=C(CSc1nnc(CNC(=O)c2ccccc2)n1-c1ccc(F)cc1)Nc1ccccc1F
    -10.1% | 2.7%
> COc1ccc(C(=O)c2oc3ccccc3c2NC(=O)c2nc(SC)ncc2Cl)cc1Cl
    5.7% | -9.3%
> Cc1ccc(NC(=O)c2ccc(CNS(=O)(=O)c3ccc4c(c3)C(C)(C)C(=O)N4C)cc2)cc1C
    ? | ?
> CCOc1ccc(-c2nnc(SCC(=O)NC3CCCCC3)nc2-c2ccc(OCC)c(OC)c2)cc1OC
    -9.9% | -16.3%
> CCOc1ccc(C(=O)c2oc3ccccc3c2NC(=O)c2cc(-c3ccc(Cl)cc3)on2)cc1
    -7.5% | -5.9%

# Other records
# Value order – HTT promoter inh | PMP22 txn prim
> Cc1cccc(-c2nc(SCCCOc3cc(C)c(Cl)c(C)c3)n3[nH]c(=O)cc3n2)c1
    -0.8% | ?
> CCn1c(C(=O)N2CCC(C(=O)N3CCN(c4cccc(C)c4C)CC3)CC2)cc2sccc21
    ? | ?
> COc1ccc(OC)c(NC(=O)CSC2=Nc3ccccc3C3=NC(CCC(=O)NCc4ccccc4)C(=O)N23)c1 (stereo not given)
    -16.1% | 12µM*
> Cc1ccc(CCNC(=O)CSCc2nc(-c3ccc(C)cc3)oc2C)cc1
    -28.4% | -29.7%
> CCOC(=O)C1CCC(CN(Cc2ccc(Cl)cc2)S(=O)(=O)c2cc(Cl)cc(Cl)c2)CC1 (stereo not given)
    ? | -30.5%
> CN(C)c1ccc(CNC(=O)C2CCCN(S(=O)(=O)c3ccc4c(c3)CCCC(=O)N4)C2)cc1 (stereo not given)
    ? | ?
> COC(=O)COc1ccc(Oc2nc(NC(C)(C)C)nc(N(C)C)n2)nn1
    -6.4% | -38.0%
> CC(C)Oc1ccc(C(=O)NCC(c2ccc(N(C)C)cc2)N2CCCC2)cc1 (stereo not given)
    13.6% | 0.3%
> Cc1ccc(NC(=O)Cn2cc(S(=O)(=O)N3CCC(C)CC3)c3ccccc3c2=O)c(Br)c1
    -26.6% | -14.0%
> CCN1C(=O)c2ccccc2S(=O)(=O)c2ccc(C(=O)NCc3ccc(C)cc3)cc21
    -13.1% | 0.7%
> Cc1cccc(C)c1NC(=O)C(C)N (stereo not given)
    6.0% | .
> COc1ccc2c(c1)c1c(c(=O)n(-c3ccc(F)c(Cl)c3)c(=O)n1Cc1cccc(C)c1)n2C
    5.5% | -22.5%
> CCOc1ccc(Br)cc1C1C(C(=O)Nc2ccccc2OC)=C(C)Nc2nnnn21 (stereo not given)
    -17.5% | 1.3%
> CC(C)c1ccc(C(=O)Nc2ccc(-c3nc4ccccc4s3)c(Cl)c2)cc1
    ? | 2.6%
> Cn1cnnc1SCC(=O)Nc1cc(C(=O)O)cc(C(=O)O)c1
    -9.3% | 9.5%
> COc1ccc(NC(=O)Cn2c3ncccc3c(=O)n2-c2ccc(C)c(C)c2)c(OC)c1
    -2.0% | ?
> COc1cccc(/C=C/c2nc3ccccc3c(=O)n2-c2ccc(C)c(C)c2)c1OC
    ? | ?
> Cc1ccc(CNC(=O)c2cnn(-c3ccc(F)cc3F)c2C2CCN(C(=O)OC(C)(C)C)CC2)cc1
    -24.4% | ?
> CC(=O)OC[C@H]1O[C@@](COC(C)=O)(O[C@H]2O[C@H](COC(C)=O)[C@@H](OC(C)=O)[C@H](OC(C)=O)[C@H]2OC(C)=O)[C@@H](OC(C)=O)[C@@H]1OC(C)=O
    -7.6% | .
> Cc1oc(-c2ccccc2Cl)nc1CS(=O)(=O)CC(=O)NC(C)CCc1ccccc1 (stereo not given)
    ? | ?

# (next part)
# Value order – HTT promoter inh | PMP22 txn prim
> Cc1ccc(O)cc1
    -2.3% | .
> COc1ccc(OC)c(CNC(=O)c2c(C)oc3ncn(C)c(=O)c23)c1
    -3.3% | 11.1%
> CCN(C(=O)Cc1nc(-c2ccc(OC)cc2)no1)c1cccc(Cl)c1
    -18.5% | -17.1%
> Cc1ccc2nc(COc3cccc(NC(=O)c4cccc(Cl)c4)c3)cc(=O)n2c1
    -0.5% | -30.7%
> CCCCNC(=O)CCCn1c(=O)c2ccccc2n(Cc2ccccc2C)c1=O
    -7.9% | ?
> O=C(Nc1ccccc1)c1ccc(Br)c(S(=O)(=O)N2CCCCC2)c1
    ? | ?
> CCOc1ccc(NC(=O)c2nnn(-c3ccc(F)c(Cl)c3)c2C)cc1
    -9.7% | -16.3%
> O=C(Nc1ccc2nc(SCC(=O)N3CCCC3)sc2c1)c1cccc(F)c1
    -7.0% | -35.7%
> COc1ccc(C(=O)Nc2ccc3nc4c(c(Nc5ccccc5OC)c3c2)CCCC4)c(OC)c1
    -20.9% | ?
> CN(C)CC[C@@H](c1ccc(Cl)cc1)c1ccccn1
    10.0% | .
> Cc1cccc(N2CCn3c2nc2c3c(=O)n(CCc3ccccc3)c(=O)n2C)c1
    5.9% | -7.0%
> COC(=O)c1cccnc1-n1c(=O)c2cccnc2n(CC(=O)Nc2cccc(C(F)(F)F)c2)c1=O
    -18.5% | -1.4%
> COc1ccc(OC)c(NC(=O)C2CCCN(S(=O)(=O)c3c(C)nn(C)c3C)C2)c1 (stereo not given)
    -7.9% | -23.5%
> CCc1cccc(CC)c1NC(=O)Cn1nnc2sc3c(c2c1=O)CCCC3
    -16.4% | 0.6%
> CCOc1ccc(NC(=O)NC(C)c2c(-n3cccc3)sc(C)c2C)cc1 (stereo not given)
    -26.5% | 0.1%
> COc1cccc(CNC(=O)C(=O)Nc2c3c(nn2-c2ccccc2)CSC3)c1
    -25.7% | -15.2%

# From PubChem BioAssay

# This is a random part of the collection; any-hit rate near 2.4%.
